HPGD block – qHTS Assay for Inhibitors of HPGD (15-Hydroxyprostaglandin Dehydrogenase); 15-hydroxyprostaglandin dehydrogenase [NAD(+)] (Homo sapiens), P15428; purified HPGD, NADH fluorescence kinetic, PGE2 substrate; Potency, µM, for the others: at the highest dose activity change, negative = inhibition, hits mostly inhibitors; 4.3% of 150,000 active; AID 894, 2007; active = well fitted inhibition curve with a large enough effect (not every such curve was filed as active); inconclusive = small, poorly fitted or top-dose-only effect, or another doubt; inactive = no such curve, though single readings can be large or run the other way;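 also: top concentration of the series not given in the record; plate controls included wells without enzyme; inactives centre near -10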
Target sequence (P15428 whole entry, looked up): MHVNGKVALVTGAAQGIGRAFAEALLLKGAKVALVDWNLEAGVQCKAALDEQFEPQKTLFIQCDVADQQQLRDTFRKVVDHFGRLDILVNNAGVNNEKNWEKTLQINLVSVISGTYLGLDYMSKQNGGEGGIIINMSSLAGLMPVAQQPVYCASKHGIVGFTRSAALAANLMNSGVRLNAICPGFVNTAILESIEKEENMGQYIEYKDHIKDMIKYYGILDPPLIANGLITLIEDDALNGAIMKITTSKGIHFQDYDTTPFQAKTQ
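NADH formation kinetics: reaction with 30 uM PGE2 and 1 mM NAD+ (final), 20 nM enzyme, Tris-HCl pH 8 with Tween 20, after 15 min compound preincubation at room temperature. Fluorescence change, last versus first of five reads.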
The depositor's hits bear a star; ? = inconclusive; & = joins results of further samples. % is scaled to controls: 0 for no effect and ±100 for the full control effect; potency is read from the fitted curve at half-maximal effect.

Structure,HPGD block
CCN(CC)S(=O)(=O)c1ccc(N2C(=O)CC2(/C=C/c2ccccc2)C(=O)NC2CCCC2)cc1 (stereo not drawn),-8%
CCOc1cc(C2C(C(=O)c3ccc(C)o3)=C(O)C(=O)N2CCc2ccccc2)ccc1O (stereo not drawn),-12%
CCCC(=O)C1CCN(Cc2ccccc2)CC1,-20%
CC(C)C(CCN1C(=O)CCC1=O)C1CCOC(C)(C)C1 (stereo not drawn),-4%
CCn1c(=O)n(CC)c2cc(S(=O)(=O)N3CCCCC3)c(C)cc21,-10%
CCc1c(C)nc2ncnn2c1Nc1ccc(C(C)=O)cc1,-20%
NC(=O)c1ccccc1NS(=O)(=O)Cc1ccc(Cl)cc1,?
O=C(CSc1nc2cc(Cl)ccc2o1)N1CCOCC1,-14%
CCOCCOC(=O)C1=C(C)N(C)C(=O)NC1c1cc(Cl)c(O)c(OC)c1 (stereo not drawn),1%
CCOC(=O)c1ccc(NC(=O)CSc2nnc(-c3cccs3)n2CC)cc1,-11%
O=c1oc2c3c4c(cc2c(C(F)(F)F)c1CCN1CCOCC1)CCCN4CCC3,-8%
Cc1nc2ccccc2nc1OCc1ccccc1,-4%
COc1ccc(NC(=S)N/C(=N/CS(=O)(=O)c2ccccc2)c2ccccc2)cc1,-4%
CC1(C)CC(=O)c2cc(C(=O)NCc3ccco3)c(=O)n(-c3ccccc3)c2C1,-18%
CC(=O)NCC(=O)OC(C(=O)c1ccccc1)c1ccc(Cl)cc1 (stereo not drawn),-19%

Structure,HPGD block
COCCOC(=O)c1c(C)oc2ccc(O)c(CN3CCC(C)CC3)c12,4%
CCn1cc(C(=O)NCC(=O)OC)c2cc(OC)c(OC)cc2c1=O,-19%
CN(C)[C@@H]1CCC[C@@H]1OC(=O)C(c1ccccc1)c1ccccc1,-7%
CCCCC1CC1C(=O)Nc1ncc2c(n1)CC(C)(C)CC2=O (stereo not drawn),-11%
Cc1ccccc1OCC(O)Cn1c(SC(C)C)nc2c1c(=O)[nH]c(=O)n2C (stereo not drawn),14µM*
Fc1ccc(C2NCCn3cccc32)cc1 (stereo not drawn),-15%
O=C1c2cccnc2C(=O)N1c1cccc(-c2nc3ccccc3o2)c1,-1%
Cc1noc(C)c1CSCC(=O)OCC(=O)Nc1sccc1C#N,-3%
CC1(OC(=O)C2CCCC2)C(=O)C=C2C=C(c3ccsc3)N(c3ccccc3)C=C2C1=O (stereo not drawn),-2%
O=C(CS(=O)(=O)c1ccccc1)c1ccc2c(c1)OCCO2,?
COc1cccc(NC(=O)c2ccc(NC(C)=O)cc2)c1,-9%
CCC1CCCCN1S(=O)(=O)c1ccc2c(c1)CCN2C(=O)C1CCC1 (stereo not drawn),?
COc1cc(C(=O)OCCn2c(=O)c3c(ncn3CCN(C)C)n(C)c2=O)cc(OC)c1OC,-9%
N/C(=N\OC(=O)COc1ccccc1Cl)c1ccccn1,-5%
Cc1ccc(-n2[nH]c(C)c(C=Nc3cc(C)ccn3)c2=O)cc1,-4%

Structure,HPGD block
Cc1ccc(NC(=O)C2c3ccccc3Oc3ccccc32)c(C)c1,2%
CN(C)C(=O)N1CCN(C(=O)c2ccco2)CC1,0%
CCn1cc(CNC(=O)c2cc([N+](=O)[O-])c(C)c([N+](=O)[O-])c2)cn1,-7%
O=C(Nc1ccc(SC(F)F)cc1)c1ccc2nccnc2c1,-17%
O=C(CCc1nc2ccccc2[nH]1)Nc1ccc2c(c1)OCCO2,-16%
CC[C@@]1(O)C(=O)OCc2c1cc1n(c2=O)Cc2cc3cc(O)ccc3nc2-1,-23%&-13%
CCOc1ccc(CCNC(=O)CN(C)S(=O)(=O)c2cccc3nsnc23)cc1OCC,-6%
CCCCC(=O)NC(c1cccc([N+](=O)[O-])c1)c1c(OC(C)=O)ccc2ccccc12 (stereo not drawn),?
N#Cc1nc(COc2ccc(Br)cc2)oc1N1CCN(Cc2ccccc2)CC1,-19%
CCCOc1ccc(/C=N/NC(=O)c2ccc(Cn3cc([N+](=O)[O-])cn3)o2)cc1,-10%
CCc1nc(SCc2ccccn2)c2c(=O)n(C)c(=O)n(C)c2n1,-9%
CCCCCOc1ccc(CSC2=NCCN2)cc1[N+](=O)[O-],-4%
O=C(CC1NC(=O)NC1=O)Nc1cccc2ccccc12 (stereo not drawn),-10%
Cc1ccc2[nH]c(=O)c(CN(CCO)C(=O)NCc3ccccc3)cc2c1,-17%
Cc1ccc2oc(-c3cccc(NC(=O)C4CCCO4)c3)nc2c1 (stereo not drawn),?

Structure,HPGD block
C/C(=C(\C#N)C(=O)NC1CCCCC1)N(C)C,16µM*
Cc1nc(SCc2ccc(Br)cc2)[nH]c(=O)c1C,?
CCCN(CCC)C(=O)c1c(C)[nH]c(C(=O)OCC)c1C,-4%
NC(=O)c1cc([N+](=O)[O-])ccc1N1CCCCC1,-15%
COC(=O)c1sc2ccccc2c1NC(=O)c1ccc(S(=O)(=O)N2CCCCC2)cc1,-14%
Cc1ccsc1/C=N/NS(=O)(=O)c1ccc([N+](=O)[O-])cc1,1%
Clc1nnc2ccc(-c3ccccc3)nn12,-25%
O=C(OCCN1C(=O)c2cccc3c(N4CCOCC4)ccc(c23)C1=O)c1ccc(Cl)cc1,-22%
N=C(N)SCC(=O)O,-12%
CCS(=O)(=O)c1ccc2c(c1)N(S(C)(=O)=O)CC(C(=O)NC1CC1)O2 (stereo not drawn),1%
O=[N+]([O-])c1cc(S(=O)(=O)C(F)(F)F)ccc1N1CCN(c2ccccc2)CC1,-13%
N/C(=N\OC(=O)Cc1cccs1)c1cccc([N+](=O)[O-])c1,-10%
CC(=O)Nc1ccc(-c2cc(-c3ccc(NC(C)=O)cc3)nc(-c3ccc(NC(C)=O)cc3)n2)cc1,?
CN1CCN(S(=O)(=O)c2cc([N+](=O)[O-])ccc2N2CCCCCC2)CC1,-10%
COC(=O)c1[nH]c2cccc(OC)c2c1NC(=O)CN1CC(C)OC(C)C1 (stereo not drawn),-20%

In the list so far, these have a furan ring, fused or not:
Structure,HPGD block
CCOc1cc(C2C(C(=O)c3ccc(C)o3)=C(O)C(=O)N2CCc2ccccc2)ccc1O (stereo not drawn),-12%
CC1(C)CC(=O)c2cc(C(=O)NCc3ccco3)c(=O)n(-c3ccccc3)c2C1,-18%
COCCOC(=O)c1c(C)oc2ccc(O)c(CN3CCC(C)CC3)c12,4%
CN(C)C(=O)N1CCN(C(=O)c2ccco2)CC1,0%
CCCOc1ccc(/C=N/NC(=O)c2ccc(Cn3cc([N+](=O)[O-])cn3)o2)cc1,-10%

The results go on:
Structure,HPGD block
COC(=O)c1ccc(Cl)c(-c2ccc(/C=N/NC(=O)Nc3ccccc3)o2)c1,?
Cc1nn(CCC#N)c2nc(C(F)(F)F)[nH]c(=O)c12,-10%
CC(C)NCC(=O)NC12CC3CC(CC(C3)C1)C2,-14%
Cc1cc(N2CCCCC2)nc2ccc(NC(=O)c3ccc(Br)o3)cc12,-15%
Cc1nn(-c2ccccc2)c(N)c1N=Nc1ccc2ccccc2c1,-21%
CCOC(=O)C1CCN(S(=O)(=O)c2cccc(-c3csc(C)n3)c2)CC1,-8%
COc1cccc(CN2C(=O)C3CCCN3c3ccc(S(=O)(=O)N4CCOCC4)cc32)c1 (stereo not drawn),-29%
C=CCC(CC=C)(NC(=O)c1ccccc1C(=O)O)c1ccccc1,-7%
Cc1nnc(-c2ccc(Oc3ccc(Br)cc3)c([N+](=O)[O-])c2)o1,-12%
O=C(O)CC(NC(=O)C(c1ccccc1)c1ccccc1)c1ccco1 (stereo not drawn),3%
COc1ccc(N2CCN(C(=O)C3CCN(S(=O)(=O)N4CCOCC4)CC3)CC2)cc1,-3%
CC(C)NC(=O)c1ccc2c(c1)S(=O)(=O)c1ccccc1C2=O,-5%
COc1cccc(OC)c1OCCOc1ccc(C(=O)c2ccccc2)cc1,-22%
CCCCCn1c(=O)c(-c2nc3ccccc3c(=O)[nH]2)c(O)c2ccccc21,-3%
CCc1cccc(NC(=O)CN(C)S(=O)(=O)c2cnc[nH]2)c1,-5%

Structure,HPGD block
CCn1c(CC(=O)Nc2ccc(Cl)c(Cl)c2)nnc1SCc1ccc(C)cc1,-14%
Oc1c(C(c2cccs2)N2CCC3(CC2)OCCO3)sc2ncnn12 (stereo not drawn),1%
O=C(NCc1ccccc1)C(c1ccc(F)cc1)N(Cc1ccc2c(c1)OCO2)C(=O)Cn1nnc(-c2cccs2)n1 (stereo not drawn),-4%
O=C(Nc1cc(S(=O)(=O)N2CCCCC2)ccc1O)c1ccccc1NS(=O)(=O)c1ccc(F)c(F)c1,-16%
Clc1cccc(NCc2nnc(SCc3ccccc3Cl)o2)c1,-13%
O=C(N/N=C/c1cn(-c2ccccc2)nc1-c1cc2ccccc2o1)c1ccncc1,-28%
O=C(CSc1nc2ccsc2c(=O)n1Cc1ccc(C(=O)O)cc1)NCc1ccco1,20µM*
Cc1[nH]c(=O)c(C#N)cc1-c1ccccc1,?
Cc1n[nH]c(=O)[nH]c1=O,-5%
COC(=O)CCCC(=O)Nc1ccc(Br)cc1,-17%
CC(C)=C1SC(N2CCN(c3ccc(C)cc3)CC2)=NC1=O,-13%
Cc1ccc(-c2nn3c(C)nnc3s2)cc1NC(=O)COc1ccc(Cl)cc1,?
CCOC(=O)C1CCN(C(=O)Cc2c(F)cccc2Cl)CC1,3%
CCC1(CC)Cc2ccccc2C(Nc2c(C)n(C)n(-c3ccccc3)c2=O)=N1,-10%
Cn1c(=O)c(Oc2cc(Cl)cc(Cl)c2)nc2ccccc21,-27%

Structure,HPGD block
CC(C)(C)c1ccc(O)c(/C=N\O)c1,-14%
CCOc1cccc(N2C(=O)CC(N3CCN(c4ccc(S(=O)(=O)CC)cc4)CC3)C2=O)c1 (stereo not drawn),-12%
CCn1c2ccccc2c2cc(/C(C)=N/O)ccc21,-14%
c1ccc(CCN2CN(CCCN3CCOCC3)c3nc4ccccc4n3C2)cc1,-4%
CC(=O)NC(Cc1ccccc1)C(=O)N1CCN(C(=O)c2cccs2)CC1 (stereo not drawn),0%
C=CCCCCCCCCCCCC(O)CC(O)COC(C)=O (stereo not drawn),?
O=C(Nc1cccc(F)c1)c1ccc(-c2ccccc2C(F)(F)F)o1,-16%
O=C(NCc1nc2ccccc2[nH]1)c1cccc(S(=O)(=O)N2CCCC2)c1,-3%
O=C(Nc1ccc2nc(-c3ccc4nc[nH]c4c3)[nH]c2c1)c1cccs1,?
CCOc1ccc2[nH]c(=O)c(CN(CC3COCCO3)C(=O)C3CC3)cc2c1 (stereo not drawn),?
Cc1ccccc1N=Cc1cccc(O)c1O,-7%
O=C(Nc1ccccc1C(=O)NCc1ccco1)c1ccccc1,-12%
CCOc1cc(C(c2c(C)[nH][nH]c2=O)c2c(C)[nH][nH]c2=O)ccc1OS(=O)(=O)c1ccc(C)cc1,-10%
COc1ccc(/C=N/NC(=O)CCN2CCN(c3ccccc3)CC2)c(OC)c1OC,0%
Cc1ccc(NS(=O)(=O)c2cc(C(=O)N3CCc4ccccc4C3)ccc2Cl)cc1,-21%

5 compounds out of the list above, ordered by their value in HPGD block, rising:
Structure,HPGD block
Cc1ccc(NS(=O)(=O)c2cc(C(=O)N3CCc4ccccc4C3)ccc2Cl)cc1,-21%
CCOc1cccc(N2C(=O)CC(N3CCN(c4ccc(S(=O)(=O)CC)cc4)CC3)C2=O)c1 (stereo not drawn),-12%
CCOc1cc(C(c2c(C)[nH][nH]c2=O)c2c(C)[nH][nH]c2=O)ccc1OS(=O)(=O)c1ccc(C)cc1,-10%
O=C(NCc1nc2ccccc2[nH]1)c1cccc(S(=O)(=O)N2CCCC2)c1,-3%
CC(=O)NC(Cc1ccccc1)C(=O)N1CCN(C(=O)c2cccs2)CC1 (stereo not drawn),0%

More compounds.
Structure,HPGD block
CCc1ccc(NC(=O)COC(=O)CCc2nc3cc(S(=O)(=O)N(CC)CC)ccc3n2C)cc1,-2%
COc1ccc(N2CCN(C(=O)c3cc(N4C(=O)C5C6CCC(C6)C5C4=O)ccc3Cl)CC2)cc1 (stereo not drawn),-13%
C=CCc1cccc2cc(C(=O)OCC)c(=O)oc12,-24%
COc1ccc(C(c2nnnn2Cc2ccccc2)N2CCN(c3nc4ccccc4s3)CC2)cc1 (stereo not drawn),-8%
OC(COCc1ccc2c(c1)OCO2)CN1CCN(Cc2ccccc2)CC1 (stereo not drawn),-14%
O=C(NNc1c2ccccc2nc2ccccc12)c1ccccc1O,-13%
CCSc1nc2c(c(=O)[nH]c(=O)n2C)n1CC(O)COc1ccccc1C (stereo not drawn),14µM*
COC(=O)CN(c1ccc(OC)c(OC)c1)S(C)(=O)=O,-6%
Clc1ccc(-c2noc(CN3CCCCC3)n2)cc1,-3%
CN1CCCN(Cc2ccccc2C(F)(F)F)CC1,-8%
Cc1ccc(C(=O)N/C(=C\c2cccs2)c2nc3ccccc3[nH]2)cc1,?
COc1ccc2c(c1)CCc1c-2n[nH]c1C(=O)O,-26%
Cc1snc(S(=O)(=O)Cc2ccccc2Cl)c1C#N,-15%
Cn1cccc1Cc1nnc(SCC(=O)N2CCOCC2)n1-c1ccc(F)cc1,-4%
Cc1nc(-c2ccccc2)sc1C(N)=O,2%
COc1ccccc1Nc1nc2ccc(C)cc2cc1C#N,-17%
O=C(NCC1COc2ccccc2O1)Nc1ccccc1F (stereo not drawn),?

Screening data (PubChem BioAssay)

A portion of the library, so the mix of outcomes need not match the whole.
